miR-21 reporter: raises the signal of a miR-21 reporter; AID 2288; 340,000 tested, under 10 active; HeLa miR-21 FLuc reporter, luciferase, 48 h; Potency, µM (titrated, usually from 38.3 µM), without a hit: at the top dose reporter change, positive = more light; active = well fitted rising curve with a large enough effect; inconclusive = small, poorly fitted or top-dose-only effect; inactive = no such curve, though single readings can be large or run the other way;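 also: % of control where 0% means no effect; miR-21 action dims this reporter so a rising signal means less miR-21 action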
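HeLa cells endogenously expressing miR-21, stably carrying CMV-driven firefly luciferase with a downstream miR-21 binding site, 2000 cells/well. Titrations up to approximately 40 uM, 48 hours; luciferase luminescence read.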
The depositor's hits bear a star; ? = inconclusive; [ ] = dose if it differs, or a comment. Not all compounds are listed (hit frequency here may not be typical).

SMILES	miR-21 reporter
Cc1coc2c(C)c3oc(=O)c(CCC(=O)NCCc4ccccc4F)c(C)c3cc12	2%
COC(=O)c1cc2oc3ccccc3c2n1CC(=O)Nc1ccc(OC)c(OC)c1OC	-4%
CCN(C(=O)CSc1nc2ccccc2nc1Cc1cccc(OC)c1)c1cccc(C)c1	-8%
COc1cc(C(=O)N2CCN(CCc3ccncc3)CC2)cc(OC)c1OC	1%
Cc1cccc(N2CCN(C(=O)Cn3ncc4c3-c3ccccc3OC4)CC2)c1C	12%
Cc1ccc2oc3c(c(=O)c2c1)C(c1ccc(O)cc1)N(c1nc(C)c(C)s1)C3=O (stereo not drawn)	6%
O=C(NCCc1ccccc1)C(=O)NCC(c1cccnc1)N1CCN(c2ccccc2F)CC1 (stereo not drawn)	9%
COc1cc(C(=O)NCC(c2ccc(N(C)C)cc2)N2CCCC2)cc(OC)c1OC (stereo not drawn)	-1%
O=C(Nc1ccc(F)cc1)c1nc(SCc2ccccc2F)ncc1Cl	5%
COc1ccc(CNC(=O)CSc2nnc(C)c3c(C)n(-c4ccccc4)nc23)c(OC)c1	3%
COc1ccc(CCNC(=O)CCCCn2c(=O)c3ccccc3n(Cc3ccc(F)cc3Cl)c2=O)cc1OC	-6%
CCc1ccc(OCC(=O)N(Cc2ccc(Cl)cc2)C2CCS(=O)(=O)C2)cc1 (stereo not drawn)	8%
Cc1ccc(N2CCN(S(=O)(=O)c3ccc4oc(=O)c5ncn(C)c5c4c3)CC2)c(C)c1	3%
CCOC(=O)c1ccc(NC(=O)c2cc3c(n(-c4ccc(C)cc4)c2=O)CC(C)(C)CC3=O)cc1	3%
CCN(Cc1ccccc1)C(=O)c1sc2nc3n(c(=O)c2c1C)CCCC3	18%
CCOc1ccccc1NC(=O)C(=O)c1cc(C)n(-c2ccc(F)cc2)c1C	-4%
CCCCNc1nc2c(c(=O)n(C)c(=O)n2C)n1CC(O)COc1ccccc1C (stereo not drawn)	13%
CCn1cc(C(=O)N2CCN(c3ccccc3)CC2)c(=O)c2cc(S(=O)(=O)N3CCCC3)ccc21	-2%
CC(=O)c1sc(N2C(=O)c3oc4ccccc4c(=O)c3C2c2ccc(C)cc2)nc1C (stereo not drawn)	0%
COc1ccc(N2CCN(C(CNC(=O)c3ccc(OC)c(OC)c3)c3cccnc3)CC2)cc1 (stereo not drawn)	-7%
Cn1c(SCC(N)=O)nc2c([nH]c3ccccc32)c1=O	-1%
Cn1c(=O)c(=O)n(C)c2cc(N3CCCC3)c(NC(=O)c3ccccc3F)cc21	-2%
CC1=C(c2ccc(C)c(C)c2)S(=O)(=O)N=C1N1CCC(C(=O)Nc2cccc(F)c2)CC1	3%
CC(=O)c1ccc(NC(=O)C2CCN(S(=O)(=O)c3c(C)noc3/C=C/c3ccc(C)cc3)CC2)cc1	-2%
COc1ccc2cc3cc(C(=O)NCc4ccc(C)cc4)oc3nc2c1	-6%
CCOC(=O)C(Cc1ccccc1)NC(=O)CCc1c(C)nc2c(c(C)nn2-c2ccc(C)c(C)c2)c1C (stereo not drawn)	0%
CCOc1ccc(NC(=O)C(=O)c2cc(C)n(-c3cc(C)cc(C)c3)c2C)cc1	-2%
O=C(Cc1ccc(NC(=O)N2CCSc3ncccc32)cc1)NCCc1ccccc1	1%
O=C(COc1ccc(Cl)cc1)Nc1cc(-c2ccccc2)no1	-23%
CCOC(=O)C1CCN(C(=O)Cn2ncc3c([nH]c4ccc(C)cc43)c2=O)CC1	-3%

Overlap with the part before: 5 entries; new compounds follow.
SMILES	miR-21 reporter
CCOC(=O)C(Cc1ccccc1)NC(=O)CCc1c(C)nc2c(c(C)nn2-c2ccc(C)c(C)c2)c1C (stereo not drawn)	0%
CCOc1ccc(NC(=O)C(=O)c2cc(C)n(-c3cc(C)cc(C)c3)c2C)cc1	-2%
O=C(Cc1ccc(NC(=O)N2CCSc3ncccc32)cc1)NCCc1ccccc1	1%
O=C(COc1ccc(Cl)cc1)Nc1cc(-c2ccccc2)no1	-23%
CCOC(=O)C1CCN(C(=O)Cn2ncc3c([nH]c4ccc(C)cc43)c2=O)CC1	-3%
Cc1ccc2c(CC(=O)Nc3c(C(=O)Nc4cccc(Cl)c4)oc4ccccc34)coc2c1C	-14%
CC1CCN(S(=O)(=O)c2ccc(N3CCCCS3(=O)=O)cc2)CC1	7%
CCc1ccc(-n2nc(C)c3c(C(=O)NCCc4ccc(OC)c(OC)c4)cc(C)nc32)cc1	14%
Cc1nc(N2CCCC2)ncc1C(=O)N1CCN(c2ccc(Cl)cc2)CC1	11%
COc1ccc(NS(=O)(=O)c2ccc3nc(-c4ccccc4)[nH]c3c2)cc1	19%
COc1ccc(Cl)cc1NC(=O)c1c(NCc2sccc2C)sc2c1CCCC2	-2%
O=C(NC(=S)NC1CCSC1=O)c1ccc([N+](=O)[O-])cc1 (stereo not drawn)	-2%
CCn1c(Oc2ccc(F)cc2F)nc2c1c(=O)n(C)c(=O)n2C	22%
O=C(Nc1ccc(N2CCN(c3ccc(F)cc3)CC2)c(C(=O)O)c1)c1ccccc1F	-15%
CCOC(=O)c1cnc2ccc(OCC)cc2c1Nc1cc(Cl)c(OC)cc1OC	-12%
COc1ccc(CNC(=O)CC(c2ccc(OC)c(OC)c2)N2Cc3ccccc3C2=O)cc1 (stereo not drawn)	0%
CCCN1CCN(CC2=C(C(=O)OCC)C(c3cccc(OC)c3OC)NC(=O)N2)CC1 (stereo not drawn)	3%
CCc1ccc(S(=O)(=O)c2nnn3c2nc(Nc2ccc(NC(C)=O)cc2)c2sccc23)cc1	0%
Cc1ccc(NC(=O)C2CCCN(C(=O)c3cnn(-c4ccccc4)c3-n3cccc3)C2)cc1 (stereo not drawn)	12%
COc1ccc(CNC(=O)C2=C(C)C(=O)OC23CCCCC3)cc1OC	-1%

Reprinted at random: 2 entries already listed, in no set order.
SMILES	miR-21 reporter
CCn1c(Oc2ccc(F)cc2F)nc2c1c(=O)n(C)c(=O)n2C	22%
COc1ccc(Cl)cc1NC(=O)c1c(NCc2sccc2C)sc2c1CCCC2	-2%

Next results follow.
SMILES	miR-21 reporter
COc1ccc2c(c1)c(=O)c(C(=O)c1ccccc1)cn2CC(=O)Nc1ccc2c(c1)OCO2	4%
CCOc1ccc(CCNC(=O)c2cc3c(s2)-c2ccccc2OC3)cc1OCC	10%
CCOc1ccc(C2C(C(=O)Nc3ccccc3)=C(C)Nc3nc(-c4ccccc4)nn32)cc1OC (stereo not drawn)	-6%
O=C(NCc1ccccc1Cl)C1CCCN(c2nc3ccccc3n3cccc23)C1 (stereo not drawn)	?
COc1ccc(N2CCN(S(=O)(=O)c3ccc(OC)c(-c4noc(C)n4)c3)CC2)cc1	4%
COc1ccc(S(=O)(=O)N(CCc2ccccc2)CC(=O)NCc2ccccc2)cc1OC	4%
Cn1c(=O)c2c(c3ccccc31)OC(=O)CC2c1cccc(F)c1 (stereo not drawn)	2%
CCS(=O)(=O)c1c(S(=O)(=O)CC)c2cc(C(C)(C)C)ccn2c1C(=O)c1ccc(F)cc1	-9%
CC(=O)N1N=C(c2ccc(C)cc2)CC1c1cn(-c2ccccc2)nc1-c1cccs1 (stereo not drawn)	-4%
CC(C)(C)NC(=O)c1oc2ccccc2c1NC(=O)c1ccccc1F	0%
COc1cccc(CNC(=O)Nc2ccc3c(c2)N(C)C(=O)c2ccccc2S3)c1	-2%
O=C(NCCCO)C(=O)Nc1c2c(nn1-c1ccccc1)CSC2	3%
Cc1ccc(CNC(=O)c2cc3sccc3n2Cc2ccc(Cl)cc2)cc1	-9%
CC1CCN(c2ccc(NC(=O)c3cccc(Cl)c3)cc2C(=O)O)CC1	-9%
CCOc1ccccc1NC(=O)CN1C(=O)CC(c2ccc(OC)c(OC)c2)Sc2ccccc21 (stereo not drawn)	-19%
CCN(Cc1ccccc1)C(=O)C1CCC(CNS(=O)(=O)c2ccc3c(c2)CCCC(=O)N3)CC1 (stereo not drawn)	27%
O=C(NCc1ccccc1)c1ccc2c(c1)N(Cc1cccc(Cl)c1)C(=O)c1ccccc1S2(=O)=O	-2%
Cc1ccc(Cl)cc1-n1nnc(-c2nc(-c3ccc4c(c3)OCO4)no2)c1C	-35%
O=c1c2cn[nH]c2nc(SCc2cccc(Br)c2)n1-c1ccc(Cl)cc1	?
Cc1c(C(=O)Nc2ccc(Br)cc2F)sc2ncnc(N(C)C3CCCCC3)c12	-12%
O=C(NNc1ncnc2c1cnn2-c1ccccc1)c1ccccc1	-27%
CCCCOC(=O)c1ccc(NC(=O)c2cnc3ccc(C)cn3c2=O)cc1	-1%
COc1ccc2nc(NC(=O)c3cc(=O)c4cc(C)cc(C)c4o3)sc2c1	-2%
CCC(C)n1c(SCC(=O)Nc2ccccc2C(=O)OC)nc2ccsc2c1=O (stereo not drawn)	12%
Cc1cc(C)n(-c2nc3ccccc3nc2Nc2cccc(C(=O)NCCc3ccccc3)c2)n1	-2%
CC(Sc1nnc2ccc3ccccc3n12)C(=O)Nc1ccc(Cl)cc1 (stereo not drawn)	-2%
COc1ccc(NC(=O)c2ccc3c(c2)N(Cc2cccc(Cl)c2)C(=O)c2ccccc2S3=O)cc1Cl (stereo not drawn)	0%
CCCCN(C)CCCNC(=O)C1CCN(S(=O)(=O)CCC)CC1	-3%
Cc1c(Cl)cccc1NC(=O)CSc1ccc(-c2ccccn2)nn1	-1%
COc1cc(-c2noc(-c3cc(C)[nH]n3)n2)cc(OC)c1OC	-30%

Some of these compounds in order of heavy-atom count, ascending:
SMILES	miR-21 reporter
CCCCN(C)CCCNC(=O)C1CCN(S(=O)(=O)CCC)CC1	-3%
CCCCOC(=O)c1ccc(NC(=O)c2cnc3ccc(C)cn3c2=O)cc1	-1%
Cc1cc(C)n(-c2nc3ccccc3nc2Nc2cccc(C(=O)NCCc3ccccc3)c2)n1	-2%

Next part.
SMILES	miR-21 reporter
Cc1nnc(NC(=O)CSc2nc3c([nH]c4ccccc43)c(=O)n2-c2ccc(Cl)cc2)s1	3%
CCCCN(C)c1nnc(NC(=O)Nc2ccc(Br)c(C)c2)s1	-3%
CCN(Cc1ccccc1)C(=O)c1cc2c(s1)-c1c(C)cccc1OC2	-17%
Cc1ccc(-c2nnc(SCCOc3ccccc3)o2)cc1	-48%
O=C(Nc1ccc2nc(SCC(=O)N3CCCC3)sc2c1)c1cccc(Cl)c1	?
Cc1nnc2c(Nc3cccc(O)c3)nc3ccccc3n12	-7%
Cc1cc(C(F)(F)F)c2c(N)c(C(=O)Nc3c(Cl)cccc3Cl)sc2n1	0%
CC(=O)c1c(C)n(-c2cccc(C)c2)c2ccc(OC(=O)COc3ccccc3)cc12	9%
Cc1cccc(NC2=CC(c3cccc(Br)c3)N(c3cccc(C)c3)C2=O)c1 (stereo not drawn)	-6%
Cc1ccc(OCCn2c(COc3ccc(Cl)cc3)nc3ccccc32)cc1	-14%
Cc1nc2ccc(S(=O)(=O)N(CC(=O)Nc3ccc(Cl)cc3)Cc3ccccc3)cc2s1	11%
Cc1ccc(S(=O)(=O)c2nnn3c2nc(NCCc2ccccc2)c2sccc23)cc1	29%
Cc1ccc(S(=O)(=O)n2nc(-c3ccco3)nc2NCc2ccccc2Cl)cc1	-55%
COc1cccc(CNC(=O)C2CCN(S(=O)(=O)c3ccc4c(ccn4C)c3)CC2)c1	1%
CCOc1ccc(OCC)c(NS(=O)(=O)c2c(C(=O)N3CCC(C)CC3)c(C)n(C)c2C)c1	-6%
COc1ccc(NC(=O)CC(C)S(=O)(=O)c2ccc3c(c2)NC(=O)CO3)cc1OC (stereo not drawn)	-1%
CCOC(=O)c1ccc(NC(=O)CC2C(=O)N(c3ccc(F)cc3)C(=O)N2Cc2ccc(C)cc2)cc1 (stereo not drawn)	?
COC(=O)c1ccccc1NC(=O)CCC(=O)N1CCOc2ccccc21	-17%
Cc1ccc(C(C)C)c(OCC(=O)Nc2cccc(-c3nc4ncccc4o3)c2)c1	22%
CCc1ccccc1NC(=O)c1nc2nc(C)cc(C(F)F)n2n1	-9%
CCOC(=O)c1ccc(N2C(=O)c3n[nH]c(-c4ccco4)c3C2c2ccccc2OC)cc1 (stereo not drawn)	?
Cc1ccc(-n2c(=O)[nH]c3sc4c(c3c2=O)CCNC4)cc1C	8%
CCOc1ccc(CNC(=O)c2cc3c(=O)n(Cc4cccs4)ccc3nc2C)cc1	-3%
O=C(c1cn(CCOc2ccccc2F)c2ccccc12)C1CCCCC1	-7%
O=C(NC1CC(=O)N(c2ccc(F)cc2)C1)c1ccc(S(=O)(=O)N2CCCC2)cc1 (stereo not drawn)	-6%
CC(NC(=O)CN1C(=O)COc2ccc(S(=O)(=O)N3CCCCCC3)cc21)c1ccccc1 (stereo not drawn)	-3%
CCc1cccc(CC)c1NC(=O)c1ccc2c(c1)CCN2S(=O)(=O)c1ccccc1	?
COc1ccc(-c2nc(CSCC(=O)NCCc3ccccc3)c(C)o2)cc1	27%
CCCCn1c(C)cc2c(c1=O)C1O[C@](CCCC)(Cc3cc(C#N)ccc31)O2	-7%[7.66 µM]
Cc1ccc(S(=O)(=O)Nc2cccc(-c3ccc(N4CCCC4)nn3)c2)c(C)c1	-10%
COc1ccc(C2C=C(c3ccc(Cl)cc3)Nc3nc(NC(=O)CCC(=O)O)nn32)cc1 (stereo not drawn)	-16%
COc1ccccc1CNC(=O)c1ccc(-c2nc(CS(=O)c3ccc(C)cc3)c(C)o2)cc1 (stereo not drawn)	-8%
COc1ccccc1CNC(=O)CCc1c(C)c2cc3c(C)c(C)oc3cc2oc1=O	0%

Single entries from above:
`COc1ccc(C2C=C(c3ccc(Cl)cc3)Nc3nc(NC(=O)CCC(=O)O)nn32)cc1` (stereo not drawn) in miR-21 reporter shows -16%
`O=C(NC1CC(=O)N(c2ccc(F)cc2)C1)c1ccc(S(=O)(=O)N2CCCC2)cc1` (stereo not drawn) in miR-21 reporter shows -6%
`CCOc1ccc(CNC(=O)c2cc3c(=O)n(Cc4cccs4)ccc3nc2C)cc1` in miR-21 reporter shows -3%
`COc1ccccc1CNC(=O)c1ccc(-c2nc(CS(=O)c3ccc(C)cc3)c(C)o2)cc1` (stereo not drawn) in miR-21 reporter shows -8%

High-throughput results deposited in PubChem by National Center for Advancing Translational Sciences (NCATS).
